# GLA inh pH 4.5: qHTS Assay for Inhibitors of Human alpha-Galactosidase at pH 4.5 | Alpha-galactosidase A (Homo sapiens), P06280 | purified enzyme, 4-MU-alpha-Gal fluorescence, pH 4.5 | activity change, negative = inhibition, % at 105 µM | 230,000 tested, under 10 active; inconclusive = small, poorly fitted or top-dose-only inhibition, or a rising curve; inactive = flat fitted curve, though single readings scatter; no compound was filed as active;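 further: 0% = full activity with enzyme and -100% = basal without enzyme; dose as in the result columns while the protocol names 77 µM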
# Target sequence (P06280 whole entry, looked up): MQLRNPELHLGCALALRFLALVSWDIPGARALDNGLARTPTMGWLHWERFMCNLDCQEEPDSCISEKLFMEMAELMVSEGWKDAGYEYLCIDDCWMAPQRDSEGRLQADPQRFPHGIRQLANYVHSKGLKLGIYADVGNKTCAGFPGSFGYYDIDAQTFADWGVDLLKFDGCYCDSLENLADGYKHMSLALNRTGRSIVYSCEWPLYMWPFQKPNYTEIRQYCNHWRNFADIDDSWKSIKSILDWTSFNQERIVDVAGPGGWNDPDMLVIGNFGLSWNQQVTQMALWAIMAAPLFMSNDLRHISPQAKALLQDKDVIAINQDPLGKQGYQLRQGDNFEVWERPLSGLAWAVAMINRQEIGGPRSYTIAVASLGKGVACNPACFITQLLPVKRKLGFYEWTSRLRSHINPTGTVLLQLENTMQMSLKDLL
# Rango-impB inh: qHTS Assay for Inhibitors of Rango (Ran-regulated importin-beta cargo) - Importin beta complex formation; Importin subunit beta-1 (Homo sapiens), Q14974; Rango CFP/YFP FRET sensor + importin beta, 45 min; Potency, µM (doses to about 92.2 µM), for inactives: top-dose inhibition of complex formation; 340,000 tested, 0.031% active; AID 540263, 2011; active = rising FRET ratio curve, often small or poorly fitted; inconclusive = mostly compound fluorescence or quenching in the first reads; inactive = flat curves in all reads;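 further: potency means the concentration at half of the fitted maximal effect; 0% = DMSO wells and 100% = buffer wells lacking importin beta; nearly all actives have a fitted effect of over 15% in size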
#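 FRET biosensor Rango (snurportin 1 IBB between N-terminal EYFP and C-terminal Cerulean), 50 nM in PBS/1 mM DTT/0.02% Tween-20/0.1% BSA, preincubated 5 min RT with compound; 0.125 microM importin beta added, 45 min RT, CFP/YFP FRET ratio read.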
# miR-21 reporter: qHTS Assay for Modulators of miRNAs and/orActivators of miR-21; HeLa miR-21 FLuc reporter, luciferase, 48 h; Potency, µM (top dose mostly 38.3 µM), inactives show top-dose reporter change, positive = more light; 340,000 tested, under 10 active; AID 2288, 2010; active = well fitted rising curve with a large enough effect; inconclusive = small, poorly fitted or top-dose-only effect; inactive = no such curve, though single readings can be large or run the other way;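 further: % of control where 0% means no effect; miR-21 action dims this reporter so a rising signal means less miR-21 action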
#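 Luminescence from a firefly luciferase reporter carrying a miR-21 binding site downstream, stably expressed under a CMV promoter in HeLa cells that make miR-21 endogenously, reports miRNA modulation after 48 h compound exposure up to approximately 40uM final.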
# Rango dissoc inh: qHTS Assay for Inhibitors of RanGTP induced Rango (Ran-regulated importin-beta cargo) - Importin beta complex dissociation; 340,000 tested, 0.071% active; Biochemical FRET Rango-importin beta, RanGTP-induced dissociation; Potency, µM (highest dose often 46.1 µM), for inactives: at the top dose activity change, negative = inhibition; Snurportin-1 (Homo sapiens) + GTP-binding nuclear protein Ran (Homo sapiens) + Importin …; active means falling FRET ratio curve, often poorly fitted, with flat reads before Ran was added; inconclusive means other falling curves, or compound fluorescence or quenching; inactive means flat or rising ratio curve;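 further: potency means the concentration at half of the fitted maximal effect; % of control where 0% means no effect; nearly all actives have a fitted effect of over 45% in size; -100% = wells without RanGTP and RCC1; the record marks most hits as doubtful in a second field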
#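 Two FRET readings bracket the reaction: one 5 min after compound meets Rango–importin beta, another 45 min after RanGTP-RCC1 (0.6 uM Ran, 0.2 uM RCC1, 2 mM GTP) is added. Only the second defines inhibition.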
# Starred values were filed as active, the others as inactive; ? = inconclusive; / = not tested or not shown; & = joins results of further samples; [ ] = another dose, or the depositor's remark. These rows are one share of the data; rates above refer to the full screens.
# Each structure is followed by: GLA inh pH 4.5	Rango-impB inh	miR-21 reporter	Rango dissoc inh
> O=C(Cc1cccc(NC(=O)C2CCCN(C(=O)CCc3ccccc3)C2)c1)Nc1cccc(C(=O)N2CCCCC2)c1 (stereo unspecified)
    /	-1.9%	/	12%
> Cc1cc(C)nc(N/N=C/c2cn[nH]c2-c2ccccc2)n1
    -2	1.5%	-2%	4%
> N[C@@H](Cc1ccc(O)c(O)c1)C(=O)O
    -3	?	/	0%
> Cc1nc(C)c(C(=O)N2CCCC(CCC(=O)NCc3ccc(F)c(F)c3)C2)s1 (stereo unspecified)
    0	2.2%	-4%	-10%
> CC1CCc2nc(NC(=O)CN3CCN(Cc4ccc5c(c4)OCO5)CC3)sc2C1 (stereo unspecified)
    -9	0.3%	-10%	4%
> COc1cccc(-n2c(N)c(C(=O)Nc3c(C)n(C)n(-c4ccccc4)c3=O)c3nc4ccccc4nc32)c1
    -3	?	0%	-10%
> COc1cc(C2CC(=O)N(CC(=O)NCc3ccco3)c3ccccc3S2)cc(OC)c1OC (stereo unspecified)
    -2	-4.6%	16%	-6%
> O=C(Nc1nccs1)c1cc2c(s1)CCCCC2
    -8	3.7%	?	2%
> CCCCN(CC)C(=O)c1ccc(Cl)c(Cl)c1
    -5	-3.9%	-16%	2%
> COc1cccc(-c2ncc3ccccc3c2COC(=O)N(C)C)c1
    /	-4.8%	/	1%
> Cc1nc(C)c(C(=O)OCC(=O)NCCc2ccc(F)cc2)s1
    /	0.6%	/	-8%
> CC(=O)C1=C(C)OC(N)=C(C#N)C1c1cccnc1 (stereo unspecified)
    6	-1.1%	0%	-7%
> COc1ccc(CCNC(=O)CCNC(=O)N2CC(=O)Nc3ccccc32)cc1OC
    /	-3.9%	-5%	-3%
> O=C(NCCO)c1cc2cc(Cl)cc(Cl)c2oc1=O
    1	?	-1%	18µM*
> CN(C)S(=O)(=O)c1ccc(N2CCCC2=O)c([N+](=O)[O-])c1
    -4	4.2%	-7%	-10%
> Cc1cccc(C)c1NC(=S)N(CCN(C)C)C(C)c1ccccn1 (stereo unspecified)
    5	0.4%	-2%	-15%
> CCOc1cc(C=NNC(=O)c2cccc(S(=O)(=O)N3CCCC3)c2)ccc1O
    /	0.8%	/	-21%
> O=Cc1c(N2CCSCC2)nc2ccccn2c1=O
    0	2.3%	-2%	1%
> O=C1CC(NCc2ccco2)C(=O)N1CCc1ccccc1 (stereo unspecified)
    6	2.2%	-9%	2%
> Cn1c(=O)c(=O)n(C)c2cc(S(=O)(=O)N3CCN(c4cccc(C(F)(F)F)c4)CC3)ccc21
    -3	-2.1%	-9%	-3%
> CC1(c2nnc(-c3cccc(Cl)c3)o2)CC(c2cccnc2)=NO1 (stereo unspecified)
    /	0.5%	/	-9%
> COCCCNC(=O)C[C@H]1C[C@H](C(=O)N2CCOCC2)[C@@]2(C)c3[nH]c4cc(CCC(=O)N(C)C)ccc4c3CCN2C1=O
    /	-0.4%	/	-6%
> Cc1cc(C)c(NC(=O)CNC(=O)COC(=O)Cc2cccs2)c(C)c1
    /	-2.0%	/	1%
> COCCNC(=O)c1cc(-c2ccc3c(c2)OCO3)on1
    3	-3.8%	-44%	9%
> CCOc1ccc(S(=O)(=O)N2CCCCC2)cc1NC(=O)CN1C(=O)NC(C)(c2ccccc2)C1=O (stereo unspecified)
    /	-1.4%	/	13%
> Cc1ccc(C(=O)NC2CCSC2=O)cc1 (stereo unspecified)
    0	-0.3%	-4%	-1%
> CCOC(=O)c1cnn(-c2nc(-c3ccc(C)cc3)cs2)c1C(F)(F)F
    -3	2.2%	-11%	13%
> O=C(Cc1ccccc1)Nc1ccc(NC(=O)c2ccccc2)nc1
    /	-0.3%	-39%	-15%
> CCN1CCN(CC(O)COc2ccc(C)c(C)c2)CC1 (stereo unspecified)
    2	-0.2%&3.3%	0%	-5%&0%
> COC(=O)c1ccccc1NC(=O)c1ccc(-c2cccc(Cl)c2)o1
    -12	1.6%	-5%	10%
> CCOC(=O)C1CCN(C(C(=O)NC2CCCC2)c2ccc(C)cc2)CC1 (stereo unspecified)
    6	-1.1%	-2%	15%
> COc1ccc(C)cc1NS(=O)(=O)c1ccc2c(c1)n(C)c(=O)n2C
    -16	-3.9%	-1%&-2%	-7%
> CN(C)/C=C(/C(=O)c1ccc(Cl)cc1)S(=O)(=O)c1ccc(Cl)cc1
    7	?	-25%	-2%
> O=C(CSc1nc2ccccc2c(=O)n1-c1ccc(OC(F)F)cc1)NCc1cccs1
    3	-2.5%	-2%	6%
> CCOC(=O)N1CCN(S(=O)(=O)N2CCCC(C(=O)NCc3ccccc3OC)C2)CC1 (stereo unspecified)
    /	0.8%	0%&0%	12%
> Cc1ncc(CO)c(/C=N/NC(=S)Nc2ccc(F)cc2)c1O
    -1	?	26%	?
> CC(=O)c1cccc(NC(=O)c2sc3nc4n(c(=O)c3c2C)CCCCC4)c1
    /	1.9%	-9%	-10%
> COc1ccc(OC)c(CCNC(=O)Cn2sc3nc(C)cc(C)c3c2=O)c1
    5	/	29%	/
> CCc1cc2c(Sc3nc4ccccc4s3)ncnc2s1
    -1	4.4%	20%	-3%
> COc1ccc2c(c1)OCC(O)(c1ccccc1)C2=O (stereo unspecified)
    /	1.2%	/	-5%
> CC(=O)OCC(=O)NCCCOc1cccc(CN2CCCCC2)c1
    /	2.2%	/	-3%
> COc1ccc(-n2nc(C(=O)NCC(=O)NCCC3=CCCCC3)c3ccccc3c2=O)cc1OC
    /	0.0%	10%	1%
> Cc1ccc(-c2c3c(=O)n(C)c(=O)n(C)c3cn2-n2cnnc2)cc1
    -5	?	-1%	?
> CCN(C(=O)COC(=O)c1c2c(nc3ccccc13)CCC2)c1c(N)n(Cc2ccccc2)c(=O)[nH]c1=O
    /	0.0%	/	5%
> COc1ccccc1NC(=O)CSc1nc2sc(C)c(C)c2c(=O)n1C
    /	1.5%	-1%	0%

# Arranged by length of the SMILES (high to low): part of the list above
# Each structure is followed by: GLA inh pH 4.5	Rango-impB inh	miR-21 reporter	Rango dissoc inh
> CN(C)/C=C(/C(=O)c1ccc(Cl)cc1)S(=O)(=O)c1ccc(Cl)cc1
    7	?	-25%	-2%
> Cc1ccc(-c2c3c(=O)n(C)c(=O)n(C)c3cn2-n2cnnc2)cc1
    -5	?	-1%	?
> CCOC(=O)C1CCN(C(C(=O)NC2CCCC2)c2ccc(C)cc2)CC1 (stereo unspecified)
    6	-1.1%	-2%	15%

# Following part:
# Each structure is followed by: GLA inh pH 4.5	Rango-impB inh	miR-21 reporter	Rango dissoc inh
> O=S1(=O)CCN2C=Nc3sc4c(c3C2=N1)CCCC4
    -2	-0.7%	-4%	16%
> CSc1ccccc1OCc1cc(C(=O)NC2CCOC2)no1 (stereo unspecified)
    /	1.6%	-64%	0%
> COc1ccc(NC(=O)c2ccccc2C)cc1
    /	?	-43%	8%
> Cn1ccc(C(=O)N/N=C/c2cccnc2)n1
    /	1.0%	-1%	6%
> CC1Sc2ccc(S(=O)(=O)NCCc3ccccc3)cc2NC1=O (stereo unspecified)
    /	0.0%	0%	-1%
> CCOC(=O)N1CCN(C(=O)COc2ccc3oc4c(c3c2)CCCC4)CC1
    /	-2.1%	/	-2%
> CCOC(=O)CSc1nc2sc3c(c2c(=O)n1-c1ccccc1)CCN(C)C3
    /	?	-7%	?
> COc1ccc(C2(C(=O)Nc3ccc(C)cc3)CCOCC2)cc1
    6	-0.4%	0%	0%
> COc1ccc(C(=O)C2CCCN(Cc3sc(N4CCCC4)nc3Cl)C2)c(OC)c1 (stereo unspecified)
    -8	0.2%	12%	28%
> Cc1ccc(NC(=O)c2cccc(NC3=NC4CS(=O)(=O)CC4S3)c2)cc1 (stereo unspecified)
    /	1.4%	-6%	21%
> CN1CCN(Cc2coc3c(Cl)cc(Cl)cc3c2=O)CC1
    /	0.0%	2%	-1%
> CC(=O)NC(Nc1nc2c(s1)CCCC2)(C(F)(F)F)C(F)(F)F
    2	-5.9%	-3%	-13%
> O=C(Nc1ccc(Cl)cc1)Nc1ccc(S(=O)(=O)Nc2ncccn2)cc1
    -2	0.0%	-3%	-2%
> COc1ccc(-c2coc3cc(O)c(OC)cc3c2=O)cc1
    /	0.6%	/	-15%
> COc1ccccc1NS(=O)(=O)c1cccc(NC(=O)c2cncc(Br)c2)c1
    /	2.1%	/	-4%
> COc1ccc(-c2csc(N3CCOCC3)n2)cc1OC
    -12	1.9%	-62%	-5%
> Cc1cc(C)n(C(=O)CNC(=O)c2ccc(C(C)(C)C)cc2)n1
    /	4.7%	-20%	-1%
> Cc1nnc(N)nc1C
    3	0.0%	-4%	0%
> Cc1cccc(C#Cc2ccccc2)n1
    -1&1	0.2%	/	-6%
> CCOc1ccc2nc(NC(=O)CSc3nc4c(c(=O)n(C)c(=O)n4C)n3CC)sc2c1
    8	6.1%	2%	-19%
> COc1ccccc1CCC(=O)N(C)CC(=O)Nc1ccc(F)cc1
    /	-1.7%	0%	0%
> Cc1ccc2nc(SCC(=O)Nc3cccc4ccccc34)nc(=O)n2c1
    /	1.3%	/	12%
> O=C(Nc1nc(-c2cccnc2)cs1)c1ccccc1F
    -22[21.1 µM]	1.9%	-30%	18%
> COC(=O)c1ccc(Cn2c(O)c(N=NC(N)=S)c3ccccc32)o1
    0	-3.6%	-15%	-6%
> C=CCNC(=S)N/N=C(\C)c1cc(OC)c(OC)c(OC)c1
    -5	0.2%	-1%	13%
> CCN(CC)CCN1C(=O)C(O)=C(C(=O)c2cc3ccccc3o2)C1c1cccnc1 (stereo unspecified)
    -4	3.1%	-2%	-5%
> Cc1ccc(OCCn2ccc(=O)[nH]c2=O)cc1C
    0	-1.6%	-9%	-5%
> COc1cccc(N2CCN(C(=O)Nc3ccccc3Cl)CC2)c1
    -21	2.0%	-13%	13%
> CCOC(=O)N1CCN(C(=O)c2ccc(N3C(=O)CCC3=O)cc2)CC1
    -2	-2.5%	-2%	-13%
> CCc1ccc(O)c(-c2cc(C(=O)Nc3cccnc3)[nH]n2)c1
    -2	0.4%	-69%	-5%
> CC1CN(c2ccccc2)NC1=O (stereo unspecified)
    9	0.4%	-15%	-17%
> CCN(Cc1ccccc1)C(c1cccc(C#N)c1)c1nnnn1C(C)(C)C (stereo unspecified)
    -11	3.3%	21%	-1%
> COC(=O)C1=C(C(=O)OC)[C@@H]2N(C)c3ccccc3[C@@]23C[C@@H](C(=O)OC)N(C(=O)c2cc(C)oc2C)C3=N1
    -7&-5	-3.7%	23%	2%
> O=C(c1ccco1)N1CCCC(N2CCN(c3ccccc3F)CC2)C1 (stereo unspecified)
    /	-2.9%	-12%	6%
> O=[N+]([O-])c1ccccc1-c1ccc(C(=S)N2CCN(c3ccccc3)CC2)o1
    0	0.2%	-1%	-1%
> Cc1ccc(NC2(C#N)C(=O)Nc3ccccc32)cc1C (stereo unspecified)
    -6	-2.4%	0%	-6%
> CC1CC(C)CN(S(=O)(=O)N2CCCC(C(=O)NC(C)c3ccccc3)C2)C1 (stereo unspecified)
    /	-6.7%	-2%	15%
> COc1ccc2c(CC(=O)O)cc(=O)oc2c1
    -5	-1.4%	-10%	5%
> O=C(NNC(=O)C12CC3CC(CC(O)(C3)C1)C2)c1ccccc1O
    /	0.5%	-4%	?
> COc1ccccc1CC(=O)c1ccccc1OC
    /	1.0%	/	23%
> O=C(Cn1cc([N+](=O)[O-])cn1)NCc1ccco1
    -24	-1.4%	0%	-11%
> COC(=O)c1ccc(-n2c(CCC(=O)O)ccc2-c2ccccc2)cc1
    /	0.4%	-1%	-6%
> COC(=O)CSc1nc2cc(OC)ccc2cc1C#N
    10	14%	-66%	-15%
> O=C(O)/C=C/C(=O)Nc1ccc(Oc2ccccc2)cc1
    1	-1.3%	6%	-5%
> c1c2c(cc3sc(N4CCCCC4)nc13)OCCO2
    -6	-0.2%	22%	-2%
> CCN1C(=NCCCCO)N[C@@H](c2cccc(F)c2)C(C(=O)OC)=C1C
    /	1.6%	0%&2%	-10%
> O=C(COC(=O)/C=C/c1ccc(C(F)(F)F)cc1)NC(=O)NCc1ccco1
    /	0.8%	/	3%
